# Sa ugtP lethal: compounds lethal to S. aureus RN4220 ugtP deletion mutant; OD600 growth, 16 h; some inactives read as strong as hits; growth inhibition, % (test concentration not listed); hit rate 0.54% among 330,000; AID 1259309;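 active = z-score under -3 and OD600 up to 0.15 on both plates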;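 also: plate controls were untreated wells for no effect and antibiotic for full effect; wells of about 80 µL received 100 nL stock; the first replicate is given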
# Autofluor counter: counter-screen for toxin protease inhibitors: compound fluorescence. fluorescence intensity (test concentration not listed). hit rate 3.1% among 360,000. compound autofluorescence counterscreen, microsphere flow cytometry; stronger effect = higher value;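 active = at least 3 SD above the mean of all compounds, about 16000 in these data; inconclusive = too few beads counted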;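 also: 100 nL of 1 mM stock went into each well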
# PrP 5UTR inh: suppresses PrP 5' UTR mRNA reporter expression | hit rate 0.35% among 340,000 | cell-based PrP 5' UTR mRNA reporter, plate reader | inhibition, % (no concentration beside the values);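 active = every replicate at 50% or more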;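 also: 0 = median of the neutral control wells; tested in H4 reporter cells; numbers are from one replicate; inactives centre near -14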
# RN4220 kill: kills Staphylococcus aureus RN4220 | S. aureus RN4220 growth, OD600, 16 h | inhibition, % (concentration not given with the values) | hit rate 0.33% among 330,000;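 active = z-score of -3 or lower and OD600 up to 0.18 on both plates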;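 also: plate controls were untreated cells for no effect and reference antibiotic for full effect; stock transfer was 100 nL into about 80 µL; one replicate is shown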
# Mtb hypoxia inh: inhibitors of hypoxia-regulated fluorescent reporter in Mycobacterium tuberculosis. hit rate 0.1% among 300,000. fluorescence inhibition, % (no concentration beside the values). M. tuberculosis hypoxia-regulated fluorescent reporter, fluorescence;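 active = 35 to 45% if threefold the growth effect, above 45% if 1.5-fold the growth effect; inactive = the rest, general growth blockers included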;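 also: wells of about 50 µL received 100 nL stock; 0% = vehicle wells and 100% = reference inhibitor wells; whole bacteria with a GFP reporter of the hypoxia response; strong numbers were not always called active; many hits fall short of the cut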
# BJeLR viability: kills HRASV12-expressing BJeLR cells. hit rate 0.17% among 300,000. inhibition, % (concentration not given with the values). AID 1554. BJeLR (HRASV12) viability, CellTiter-Glo ATP luminescence, 48 h; reference of the scale not given here;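 active = replicate mean above 50%; inconclusive = above 50% but judged a plate artefact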;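 also: 50 nL library stock added to about 25 µL; numbers are from one replicate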
# Mtb hypoxia inh growth: further read-out of Mtb hypoxia inh, marked with its call; growth inhibition, %; measured here: M. tuberculosis growth (absorbance);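 0% = vehicle and 100% = reference antibiotic; read after six days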
# * hit, by the source's call; ? = inconclusive; . = not tested or not shown.
# Start of the listing, in advance (15 entries):
SMILES,Sa ugtP lethal,Autofluor counter,PrP 5UTR inh,RN4220 kill,Mtb hypoxia inh,Mtb hypoxia inh growth,BJeLR viability
Cn1c(=O)c2c(SCC(=O)N3CCCC3)nc(CC(C)(C)C)nc2n(C)c1=O,6,5710,-4,1.0,6,7,4
N[C@H](CSCc1ccccc1)C(=O)Nc1ccc([N+](=O)[O-])cc1,-3,3110,-14,2.1,2,11,-3
CN(C)C1=C(C#N)C(c2ccccc2)=NP(N(C)C)(N(C)C)=N1,0,8817,-13,1.9,5,9,17
CCOC(=O)c1c(NC(=S)NCC2CCCO2)sc(C)c1C (stereo not drawn),5,4447,-16,4.7,8,8,8
CCOC(=O)c1ccc(N/C=C\C(=O)c2cccc(OC)c2)cc1,-1,2027,-41,6.1,11,4,12
COc1ccc(N2C(=NC(=O)C3CCCCC3)SC3CS(=O)(=O)CC32)cc1 (stereo not drawn),-1,6321,1,1.3,0,5,-6
O=C(NNC(=O)c1cc2ccccc2o1)c1ccncc1,2,3674,-13,6.0,.,.,.
Cc1ccc(NC(=S)NNc2ccc(C(=O)O)cc2[N+](=O)[O-])cc1C,1,.,-27,1.1,7,-8,8
CC(=O)Nc1ccc(OC(=O)N2CCCCC2)cc1,-1,22883*,-1,2.4,1,-4,.
Cc1ccc(C(NC(N)=O)c2ccccc2)cc1 (stereo not drawn),8,5729,9,0.9,13,5,-5
COc1ccc2c(c1)c(=O)c(C(=O)c1ccc(Cl)cc1)cn2CC(=O)Nc1ccc(F)cc1,0,5392,-14,3.8,-5,-3,-5
Cc1cccc2c1N(C(=O)CN1C(=O)c3ccccc3C1=O)C(C)(C)c1ssc(=S)c1-2,2,2343,-9,9.4,8,5,6
c1ccc(-c2c[n+]3c(n2-c2ccccc2)SCC3)cc1,1,4602,.,0.5,2,-4,5
COCCn1c(C)c(C(=O)O)sc1=S,11,1973,4,-10,.,.,3
CCOC(=O)c1c(NCCN(C)C)c2ccccc2[nH]c1=O,-2,4471,.,-4.6,-9,0,3

# The list itself, repeating the preview:
SMILES,Sa ugtP lethal,Autofluor counter,PrP 5UTR inh,RN4220 kill,Mtb hypoxia inh,Mtb hypoxia inh growth,BJeLR viability
Cn1c(=O)c2c(SCC(=O)N3CCCC3)nc(CC(C)(C)C)nc2n(C)c1=O,6,5710,-4,1.0,6,7,4
N[C@H](CSCc1ccccc1)C(=O)Nc1ccc([N+](=O)[O-])cc1,-3,3110,-14,2.1,2,11,-3
CN(C)C1=C(C#N)C(c2ccccc2)=NP(N(C)C)(N(C)C)=N1,0,8817,-13,1.9,5,9,17
CCOC(=O)c1c(NC(=S)NCC2CCCO2)sc(C)c1C (stereo not drawn),5,4447,-16,4.7,8,8,8
CCOC(=O)c1ccc(N/C=C\C(=O)c2cccc(OC)c2)cc1,-1,2027,-41,6.1,11,4,12
COc1ccc(N2C(=NC(=O)C3CCCCC3)SC3CS(=O)(=O)CC32)cc1 (stereo not drawn),-1,6321,1,1.3,0,5,-6
O=C(NNC(=O)c1cc2ccccc2o1)c1ccncc1,2,3674,-13,6.0,.,.,.
Cc1ccc(NC(=S)NNc2ccc(C(=O)O)cc2[N+](=O)[O-])cc1C,1,.,-27,1.1,7,-8,8
CC(=O)Nc1ccc(OC(=O)N2CCCCC2)cc1,-1,22883*,-1,2.4,1,-4,.
Cc1ccc(C(NC(N)=O)c2ccccc2)cc1 (stereo not drawn),8,5729,9,0.9,13,5,-5
COc1ccc2c(c1)c(=O)c(C(=O)c1ccc(Cl)cc1)cn2CC(=O)Nc1ccc(F)cc1,0,5392,-14,3.8,-5,-3,-5
Cc1cccc2c1N(C(=O)CN1C(=O)c3ccccc3C1=O)C(C)(C)c1ssc(=S)c1-2,2,2343,-9,9.4,8,5,6
c1ccc(-c2c[n+]3c(n2-c2ccccc2)SCC3)cc1,1,4602,.,0.5,2,-4,5
COCCn1c(C)c(C(=O)O)sc1=S,11,1973,4,-10,.,.,3
CCOC(=O)c1c(NCCN(C)C)c2ccccc2[nH]c1=O,-2,4471,.,-4.6,-9,0,3
COC(=O)C1CCN(C(=O)Cn2nnc(-c3ccccc3)n2)CC1,0,3424,-16,1.6,2,-6,-3
Cc1ccc([N+](=O)[O-])c(NC2OC(CO)C(O)C2O)c1 (stereo not drawn),6,4333,-20,2.3,2,4,-11
O=C(CCCCCN1C(=O)c2cccc3cccc(c23)C1=O)NC1CCS(=O)(=O)C1 (stereo not drawn),3,4622,-22,4.8,-5,8,-4
O=C1CCCCC1Sc1ccc(Cl)cc1[N+](=O)[O-] (stereo not drawn),48,4107,-23,0.8,17,12,17
COc1ccc(-c2ccc(N)[n+](CCCC(=O)O)n2)cc1,-4,5507,-26,7.6,-1,9,-5
COc1cc(CNC(C)C)ccc1OCC(=O)Nc1cccc2ccccc12,-1,6091,4,1.5,-2,6,3
COc1ccccc1C(=O)N1CCN(Cc2c[nH]c3ccccc23)CC1,9,3640,-20,1.6,0,9,0
COc1cc(-c2nnc(COC(=O)c3cccn3C)o2)cc(OC)c1OC,-1,4207,3,-1.0,4,-4,3
Cc1ccc(NC(=O)CSc2nc(C)c(Cc3ccccc3)c(=O)[nH]2)cc1,32,5180,-12,15,0,0,-4
O=C(Nc1cccnc1)C1CC(c2ccc(Cl)c(Cl)c2)=NO1 (stereo not drawn),5,7468,-10,12,4,6,4
CCN1CCN(c2ccc(NC(C)=O)cc2Cl)CC1,6,2579,-5,6.1,-1,8,1
COC(=O)c1ccc(CN2C(=O)c3ccccc3S2(=O)=O)cc1,0,11097,-11,1.9,5,8,-2
Cc1cc(S(=O)(=O)N2CCCC2)ccc1OCC(=O)Nc1ccc(C(N)=O)cc1,1,4830,-21,-5.2,-4,-3,.
Cn1c(=O)[nH]c(=O)c2c1ncn2CCN1CCCCC1,4,3044,-13,6.2,.,.,2
CCOc1ccc(N2C(=O)CC(NC3CCN(C(=O)c4cccc(Cl)c4)CC3)C2=O)cc1 (stereo not drawn),7,5968,-11,1.3,12,16,-21
CC(OC(=O)c1cc2c(s1)CCCCC2)C(=O)NC(N)=O (stereo not drawn),-2,2687,-16,2.0,-14,2,3
CCc1cc2c(=O)c(-c3nc4ccccc4n3C)coc2c(CN2CCCC(C)C2)c1O (stereo not drawn),-1,3858,5,-0.3,-1,10,0
CCOC(=O)c1cccc(NC(=O)CCc2nc(-c3ccccc3F)no2)c1,2,4894,-8,-2.5,.,.,5
COc1ccc(C(=O)NCC(=O)N2CCN(c3ccccc3)CC2)cc1,7,3656,-16,0.9,-3,0,-3
CCCc1nc(C)c(-c2ccc(OC)c(OC)c2)c(=O)[nH]1,5,2264,-18,-0.1,.,.,1
COc1ccc(C(C(=O)NCC2CCCO2)N(C(=O)CNC(=O)c2cccs2)c2ccccc2C)cc1OC (stereo not drawn),-2,3243,-10,6.2,9,5,8
Cc1cc2ncc(S(=O)(=O)c3ccccc3)c(N)n2n1,4,3931,-17,-2.8,15,6,-21
O=C(Nc1ccccn1)c1cccc(S(=O)(=O)N2CCCCC2)c1,-1,4656,-20,2.3,.,.,-5
CC1CN(C(=S)c2cccc([N+](=O)[O-])c2)CC(C)O1 (stereo not drawn),5,4753,-1,2.9,9,4,-4
O=C(CNC(=O)c1ccc(Br)o1)Nc1ccc(F)c(S(=O)(=O)N2CCOCC2)c1,-1,.,-14,1.9,0,-12,.
COc1cccc(CCNC(=O)c2cccc(NC(=O)C3=C(C)OCCS3)c2)c1,0,5379,-14,3.7,9,10,-15
O=C(Nc1ccccc1)N(CCCN1CCOCC1)Cc1ccccc1F,-5,2929,-5,-9.4,5,13,14
O=[N+]([O-])c1ccc(Nc2ccccc2)nc1,-11,2215,-7,3.4,3,7,0
Cc1ccccc1/C=C1\SC(=S)N(/N=C/c2cc([N+](=O)[O-])ccc2O)C1=O,.,1952,-19,.,.,.,-6
COc1ccc(/C=C/C(=O)Oc2ccc(/C=N/NC(=O)COc3c(C)cccc3C)cc2)cc1,.,2856,-14,.,.,.,-2
COc1cccc(C(=O)NCCS(=O)(=O)N2CCC3(CC2)OCCO3)c1,1,.,-3,-0.1,6,5,-2
Nc1c(C(=O)Nc2nc3ccccc3s2)sc2nc(-c3cccs3)ccc12,99*,3925,-62,80,8,4,11
Cc1cc(C)c2[nH]c(=O)c(C(c3nnnn3Cc3ccc4c(c3)OCO4)N3CCCCC3)cc2c1 (stereo not drawn),3,4145,37,4.7,.,.,7
CC[C@]12c3[nH]c4cc(-c5ccco5)ccc4c3CCN1C(=O)[C@@H](CC(=O)NCCCOC)C[C@@H]2C(=O)N1CCN(C(=O)c2ccco2)CC1,6,3477,-32,0.7,2,8,.
CCOC(=O)C1=C(C)NC(=O)NC1c1cccs1 (stereo not drawn),8,4997,-21,6.7,1,-4,5
COC(=O)CSC1=C(C#N)C(c2cccc(OC)c2)CC(=O)N1 (stereo not drawn),6,5275,-36,2.8,-4,-4,9
COc1ccc(OC)c2sc(N3CCN(c4ccccc4)CC3)nc12,-2,3245,-10,13,5,9,-10
Cc1ccc(S(=O)(=O)N2CCN(C(=O)c3ccccc3)C2C(C)C)cc1 (stereo not drawn),9,6713,-45,0.1,13,-1,4
CCOC(=O)c1c(NC(=O)C2C3C=CC(C3)C2C(=O)O)sc2c1CCC(CC)C2 (stereo not drawn),6,2061,-10,1.1,6,3,10
COc1ccccc1CC(O)CC1c2c(cc3c(c2OC)OCO3)CCN1C (stereo not drawn),7,3196,-10,-2.1,4,-5,.
COC(=O)c1sc2nc(SCc3ccccc3C)n(N)c(=O)c2c1C,-2,2042,-6,3.8,3,-1,-1
O=c1[nH]c(C2CCN(S(=O)(=O)c3ccccc3C(F)(F)F)CC2)nc2c1nnn2Cc1cccc(F)c1,-2,3791,-18,2.0,5,-2,-13
CCOC(=O)c1sc(NC(=O)CCCn2nc([N+](=O)[O-])c(Cl)c2C)c(C(=O)OCC)c1C,2,7524,7,6.1,5,2,-7
COc1ccc(OC)c(-c2nnc(SCC(=O)N3CCCc4ccccc43)o2)c1,4,4701,-12,-3.2,.,.,-3
CCOC(=O)C1CCN(C(=O)Cn2nc(C)c3c(C)n(-c4ccccc4)nc3c2=O)CC1,1,5908,-5,1.9,7,3,-4

# (cont.)
SMILES,Sa ugtP lethal,Autofluor counter,PrP 5UTR inh,RN4220 kill,Mtb hypoxia inh,Mtb hypoxia inh growth,BJeLR viability
O=C1CSC(c2cn(-c3ccccc3)nc2-c2ccccc2)N1Cc1ccco1 (stereo not drawn),-3,3292,-12,-4.0,3,10,-2
COc1ccc(N2CCN(C(=O)c3ccc4c(Cl)c5c(nc4c3)CCCC5)CC2)cc1,6,4941,-18,2.4,2,5,4
O=C1CC(Nc2cc(=O)[nH]c(=O)[nH]2)C(=O)N1c1ccccc1Cl (stereo not drawn),2,3612,-12,3.6,8,1,3
COc1ccc(NC(=O)CN2CCCC(C)C2)c([N+](=O)[O-])c1 (stereo not drawn),1,4081,-14,6.3,7,7,3
CC(C)Sc1nnc([C@H](C)NC(=O)OC(C)(C)C)o1,2,?,-16,4.2,4,-13,5
CC1CCCN(CCCNC(=O)c2ccc3c(c2)N(Cc2ccccc2F)C(=O)c2ccccc2S3(=O)=O)C1 (stereo not drawn),.,4815,-22,.,.,.,4
O=C(CNS(=O)(=O)c1ccc(Br)s1)NCc1ccc(F)cc1,3,3552,-15,5.4,13,9,-1
CNC(=O)CSc1nc2nn(-c3ccccc3)c(=O)c-2c2n1CCCCC2,1,21375*,-6,3.0,-2,9,-5
S=c1[nH]c2cc(-c3ccccc3)ccc2o1,.,3974,-14,.,.,.,-1
Fc1ccc2[nH]c3c(N4CCN(Cc5ccc6c(c5)OCO6)CC4)ncnc3c2c1,17,.,.,9.9,11,8,.
CC1Oc2ccccc2C=C1C=NNC(=O)c1cccnc1 (stereo not drawn),5,.,.,0.3,-4,-3,.
Cc1ccc(S(=O)(=O)N2CCC(C(=O)N3CCc4ccccc43)CC2)cc1C,4,?,-27,1.1,3,10,.
CCOC(=O)c1ccc(-c2ccc3[nH]c4ccccc4c(=O)c3c2)cc1F,2,3837,-5,1.8,2,3,8

# Taken from above:
# BJeLR viability result of `O=C(CNS(=O)(=O)c1ccc(Br)s1)NCc1ccc(F)cc1` stands at -1
# RN4220 kill result of `Cc1ccc(S(=O)(=O)N2CCC(C(=O)N3CCc4ccccc43)CC2)cc1C` stands at 1.1
